Assay outcomes (PubChem)
MT1-MMP promoter = inhibitors of MT1-MMP promoter transcription, cell-based, luciferase reporter, luminescence (AID 618); calls from a first round at 10 µM; hits with a dose series show EC50 in µM; MT1-MMP promoter luciferase reporter cells, luminescence; 87,000 compounds, 0.62% hits;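 active = over half of the reporter light lost at 10 µM or EC50 under 50 µM; inactive = the rest and hits that failed the dose series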;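 also: actives suppress MT1-MMP promoter-driven transcription so potencies describe inhibitors; HT1080 fibrosarcoma cells; overnight exposure; toxic or luciferase-blocking compounds were not removed from the actives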
Hsc70 ATP site = Hsc70 inhibitors, probe displacement, primary screen, biochemical, fluorescence polarization (AID 568); Hsc70 fluorescence polarization, probe displacement; higher % means a stronger effect; strong numbers were not always called active; 83,000 tested, under 10 active; displacement, % at 20 µM; hits with a dose series show IC50 in µM;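 active = displacement above 50% without optical interference and an IC50 on retest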;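 also: ATPase domain with a fluorescein-tagged ATP probe; 0% = vehicle and 100% = excess ADP; read after one hour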
WNV protease inh = inhibitors of West Nile virus NS2B-NS3 protease; z-score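 (tested at a level between 10 and 100 µM)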; P06935; 65,000 compounds, 0.18% hits; WNV NS2B-NS3 protease, fluorogenic substrate Ex360/Em465; hits give low values;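 active = z-score at -3 or under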;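 also: score is relative to mean and spread of the compound wells of a plate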
Target sequence (P06935 1371-1501 limits assumed): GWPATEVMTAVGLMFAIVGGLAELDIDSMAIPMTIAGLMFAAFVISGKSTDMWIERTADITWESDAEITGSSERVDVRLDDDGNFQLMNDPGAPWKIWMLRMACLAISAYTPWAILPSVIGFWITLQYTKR
Target sequence (P06935 1502-1679 limits assumed): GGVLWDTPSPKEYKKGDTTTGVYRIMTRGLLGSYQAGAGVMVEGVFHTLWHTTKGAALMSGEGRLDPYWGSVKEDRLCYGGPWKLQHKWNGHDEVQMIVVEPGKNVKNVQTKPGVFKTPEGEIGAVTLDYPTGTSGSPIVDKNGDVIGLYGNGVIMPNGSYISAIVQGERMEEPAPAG
Active calls of the source: *; i = inactive; nt = no result given.

Start of the data: the first 7 records, to show the layout:
SMILES	MT1-MMP promoter	Hsc70 ATP site	WNV protease inh
COc1cc(S(=O)(=O)n2nc(C)cc2C)c(OC)cc1Cl	i	1.9%	nt
COc1cc(OC)cc(-c2nnc(SCC(=O)N3CCCc4ccccc43)o2)c1	i	2.5%	0.16
C/C(CC(=O)Nc1ccccc1-c1ccccc1)=N\NC(=O)COc1ccc(C)cc1Br	i	3.7%	nt
COCCOC(=O)C1=C(C)NC(=O)NC1c1cccs1 (stereo unspecified)	i	-2.6%	-0.52
CC1CCCCC1NC(=O)Cn1[nH]c(=O)c2ccccc2c1=O (stereo unspecified)	i	7.6%	-1.66
O=C(CSC1=NCCS1)NC1CCCC1	i	-1.1%	nt
Cc1ccc(N2C(=O)c3ccccc3C2(O)c2ncc[nH]2)cc1 (stereo unspecified)	i	-2.6%	1

Main list (from the top)
SMILES	MT1-MMP promoter	Hsc70 ATP site	WNV protease inh
COc1cc(S(=O)(=O)n2nc(C)cc2C)c(OC)cc1Cl	i	1.9%	nt
COc1cc(OC)cc(-c2nnc(SCC(=O)N3CCCc4ccccc43)o2)c1	i	2.5%	0.16
C/C(CC(=O)Nc1ccccc1-c1ccccc1)=N\NC(=O)COc1ccc(C)cc1Br	i	3.7%	nt
COCCOC(=O)C1=C(C)NC(=O)NC1c1cccs1 (stereo unspecified)	i	-2.6%	-0.52
CC1CCCCC1NC(=O)Cn1[nH]c(=O)c2ccccc2c1=O (stereo unspecified)	i	7.6%	-1.66
O=C(CSC1=NCCS1)NC1CCCC1	i	-1.1%	nt
Cc1ccc(N2C(=O)c3ccccc3C2(O)c2ncc[nH]2)cc1 (stereo unspecified)	i	-2.6%	1
CS(=O)(=O)Nc1ccc(C(=O)NCc2ccccn2)cc1	i	-3.4%	-0.06
O=C(CC1Nc2ccccc2NC1=O)Nc1cc(Cl)cc(Cl)c1 (stereo unspecified)	i	5.2%	nt
O=C(CCC(=O)OCC(F)(F)C(F)F)Nc1ccc(Cl)cc1	i	-4.2%	-0.2
COc1ccc(C2N(c3cc(Cl)ccc3OC)C(=O)C3CCCN32)cc1OC (stereo unspecified)	i	4.1%	-0.74
CC(=O)c1c(C)[nH]c(C(=O)NCCCN2CCCC2)c1C	i	1.6%	0.17
COc1ccc(C2OC(=O)c3ccccc3S2)cc1 (stereo unspecified)	i	9.4%	0.93
COC(=O)C(Nc1nccs1)(OC)C(F)(F)F (stereo unspecified)	i	43.0%	1.62
Cc1ccc(C(=O)CSc2nnc(CNc3ccc(C)cc3C)n2Cc2ccco2)cc1	i	-3.2%	-0.05
CC(=O)OC1CSc2nc3ccccc3n2C1 (stereo unspecified)	i	-3.6%	-1.56
CC(=O)c1cccc(NC(=O)Nc2ccc(C(=O)N3CCCC3)cc2)c1	i	0.8%	0.47
CCCCn1c(NCCN(C)C)nc2c1c(=O)[nH]c(=O)n2C	i	1.8%	-0.29
O=C(COC(=O)c1ccccn1)Nc1ncc(C(F)(F)F)cc1Cl	i	3.8%	-1.23
COc1ccc(C(C#N)Nc2ccccc2OC)cc1 (stereo unspecified)	i	6.5%	-1.58
CC(C)OC(=O)C1C(=O)CC(C)(O)C(C(=O)OC(C)C)C1c1cccc(O)c1 (stereo unspecified)	i	1.1%	-0.33
O=C1Nc2ccccc2C1=Nc1ccc(-c2nnc3n2CCCCC3)cc1	i	-1.1%	0.67
Cc1ccc(-c2nnn(CC(=O)N(c3ccc(F)cc3)C(C(=O)NC3CCCC3)c3ccco3)n2)o1 (stereo unspecified)	i	1.2%	0.89
CC(Oc1ccc(Cl)cc1Cl)C(=O)NCCCn1ccnc1 (stereo unspecified)	i	4.4%	-0.36
CCOC(=O)c1c(C)oc2c1c1c(c3ccccc32)OCN(Cc2cccnc2)C1	i	15.1%	-0.04
NC(=O)C1CCCN(Cc2ccc(Cl)cc2)C1 (stereo unspecified)	i	1.8%	0.51
CC(=O)c1ccc(NC(=O)C2CCC(C)NC2=O)cc1 (stereo unspecified)	i	-2.6%	1.67
c1ccc(Cc2nnc3sc(Nc4ccccc4)nn23)cc1	i	-1.0%	-1.21
c1ccc(C2OC3c4cccc5cccc(c45)C3N2c2ccccc2)cc1 (stereo unspecified)	i	7.9%	nt
C/C=C/c1ccccc1OCc1ccc(C(=O)O)o1	i	-1.8%	0.21

One compound at a time (already shown). Order of screens: MT1-MMP promoter, Hsc70 ATP site, WNV protease inh
`CC(=O)c1cccc(NC(=O)Nc2ccc(C(=O)N3CCCC3)cc2)c1` as listed: i, 0.8%, 0.47
`COCCOC(=O)C1=C(C)NC(=O)NC1c1cccs1` (stereo unspecified) as listed: i, -2.6%, -0.52
`Cc1ccc(N2C(=O)c3ccccc3C2(O)c2ncc[nH]2)cc1` (stereo unspecified) as listed: i, -2.6%, 1
`CC(C)OC(=O)C1C(=O)CC(C)(O)C(C(=O)OC(C)C)C1c1cccc(O)c1` (stereo unspecified) as listed: i, 1.1%, -0.33
`CCOC(=O)c1c(C)oc2c1c1c(c3ccccc32)OCN(Cc2cccnc2)C1` as listed: i, 15.1%, -0.04

Other entries
SMILES	MT1-MMP promoter	Hsc70 ATP site	WNV protease inh
CC(=O)C1=C(O)C(=O)N(c2ccc(C(=O)O)cc2)C1c1ccccc1 (stereo unspecified)	i	6.0%	-0.6
CCC(C)NC(=O)CCNS(=O)(=O)c1ccc(Br)cc1 (stereo unspecified)	i	-4.6%	0.29
N#C/C(=C(/O)CN1CCN(c2ccccc2F)CC1)c1nc(-c2ccccc2)cs1	i	1.7%	nt
Cc1ccccc1-n1c(Cn2c(=O)sc3ccccc32)nnc1SCC(=O)N1CCOCC1	i	1.9%	-1.73
O=C(COc1ccc(S(=O)(=O)NC2CCCCC2)cc1Cl)N1CCN(c2ccccc2)CC1	i	6.2%	nt
O=C(CCCC1=NS(=O)(=O)c2ccccc2N1)N1CCN(c2ccccc2)CC1	i	1.8%	-1.22
O=C(CN(C(=O)C1CSC(=O)C1)c1ccccc1F)NCc1ccc2c(c1)OCO2 (stereo unspecified)	i	8.8%	0.68
O=C(Cn1cnc2ccccc2c1=O)NCC(=O)N1CCN(c2ccccn2)CC1	i	0.1%	0.78
CCCCN(CC)S(=O)(=O)c1ccc2c(c1)CCCN2C(C)=O	i	2.6%	0.15
CCS(=O)(=O)NCCc1cc2cc(C)c(C)cc2[nH]c1=O	i	-0.3%	0.44
COCCNC(=O)Nc1ccc2nc(-c3cccs3)c(-c3cccs3)nc2c1	i	-6.2%	nt
Cc1cc2cc(CN(Cc3ccco3)C(=O)NCc3ccccc3)c(=O)[nH]c2cc1C	i	-8.8%	-1.5
CC(CCc1ccccc1)NC(=O)COC(=O)C1=COCCO1 (stereo unspecified)	i	2.8%	0.59
Cc1nn2c3c(cnc2c1-c1ccccc1)C(=O)CCC3	i	3.5%	-0.36
CCOC(=O)c1c(C)nc2c(c1C)c(=O)oc1ccccc12	i	-1.8%	nt
O=C(Cn1nnc(-c2ccccc2)n1)OCc1csc(-c2ccccc2)n1	i	-7.6%	1
O=C(O)CCc1nn2cnc3sc4c(c3c2nc1=O)CCCC4	i	-2.3%	nt
CCN1CCc2nc(NC(=O)C(c3ccccc3)c3ccccc3)sc2C1	i	2.6%	nt
O=C(c1ccc(Cl)cc1)N(Cc1cccs1)C1CCS(=O)(=O)C1 (stereo unspecified)	i	-2.0%	0.41
CCSC1=NCN(CCCC(=O)O)CN1	i	0.9%	-0.4
Cc1csc(Nc2ccccc2C(F)(F)F)n1	i	-12.7%	nt
Cc1ccc(C)c(S(=O)(=O)c2c(N)n(/N=C/c3ccco3)c3nc4ccccc4nc23)c1	i	-12.4%	-1.22
CCCN1Cc2cccc(C(=O)NCc3ccc4c(c3)OCO4)c2C1=O	i	-1.3%	0.42
CC(=O)Nc1ccccc1NC(=O)CC(C)(C)C	i	-10.4%	1.53
CCOC(=O)c1ccc(Nc2nnc3nc(C)cc(C)n23)cc1	i	-0.2%	-1.2
COCCNC(=O)CN1CCOc2ccccc21	i	-0.4%	-0.46
CCN(CC)C(=O)c1ccc(NS(=O)(=O)c2ccccc2)cc1	i	2.7%	1.21
Cc1nc(NCCO)c(C#N)c2c1COC(C)(C)C2	i	5.6%	-1.27
N#CC1=C(N)Oc2cc(N)ccc2C1c1ccc(F)cc1 (stereo unspecified)	i	2.3%	nt
O=C(Nc1ccccc1)NC1CCN(CCCN2C(=O)c3ccccc3C2=O)CC1	i	-2.5%	0.68
CC(C)C(NC(=O)c1ccc(S(=O)(=O)N2CCOCC2)cc1)c1nc2ccccc2[nH]1 (stereo unspecified)	i	0.6%	0.31
COc1ccc(C2CC(c3ccc(OC)cc3)n3nc(N)nc3N2)cc1 (stereo unspecified)	i	0.5%	1.62
CNS(=O)(=O)c1ccc(NC(=O)C(CCSC)NC(N)=O)cc1 (stereo unspecified)	i	2.4%	0.75
COC(=O)c1cn(C(=O)c2cccs2)c2ccccc12	i	-4.5%	-1.23
CCCCSC1(SCCCC)N=C(N)C2(C#N)C(c3ccccc3)NC(C)=CC12C#N (stereo unspecified)	i	-2.4%	nt
O=C1CC(c2ccccc2)CC(O)=C1C=NCCN1CCNCC1 (stereo unspecified)	i	-0.3%	-0.74
O=C(NCc1ccc(F)cc1)C1CCC(=O)N1C1CCCCC1 (stereo unspecified)	i	-5.4%	1.97
CCC(C)C(NC(=O)c1ccc(Cl)cc1)C(=O)O (stereo unspecified)	i	-3.1%	0.00195
CCn1cc(C(=O)OC(C)C(=O)Nc2c(C)n(C)n(-c3ccccc3)c2=O)c(=O)c2ccc(C)nc21 (stereo unspecified)	i	-2.0%	-0.11
CC(C)CCn1c(SCCN2CCOCC2)nc2c1c(=O)[nH]c(=O)n2C	i	-4.5%	-1.06
CCN1CCN(C(=S)c2ccc(SC)cc2)CC1	i	7.8%	nt
Cc1ccc(NC(=O)c2cccs2)cc1NC(=O)c1ccco1	i	-3.1%	-0.69
CCCC1=C(C(=O)OCC)C(c2ccccc2OC)NC(=O)N1 (stereo unspecified)	i	-0.5%	1.33
O=C(CN1CCN(c2ccccc2F)CC1)c1ccc2c(c1)OCO2	i	-5.1%	-0.62
COc1cccc(OC)c1C(=O)Nc1c(C)n(C)n(-c2ccccc2)c1=O	i	4.3%	-1.3
CCC1(C)Cc2c(sc3nn[nH]c(=O)c23)CO1 (stereo unspecified)	i	2.8%	nt
CCCOc1ccccc1-c1nc2c([nH]1)c(=O)[nH]c(=O)n2C	i	-0.1%	0.31
Cc1ccc(S(=O)(=O)c2nc(NC3CCS(=O)(=O)C3)sc2Cl)cc1 (stereo unspecified)	i	3.2%	0.88
CC(C)N(C(=O)CSc1nc2ccccc2n1-c1ccccc1)C(C)C	i	0.7%	nt
CC(C)Sc1oc(-c2ccco2)nc1S(=O)(=O)c1ccccc1	i	-1.0%	nt

Next results
SMILES	MT1-MMP promoter	Hsc70 ATP site	WNV protease inh
COc1ccc(S(=O)(=O)N(Cc2nc3ccccc3c(=O)[nH]2)C2CCCC2)cc1	i	-3.8%	-0.74
COC(=O)C1=C(C)NC(=O)CC1c1cc(Br)ccc1F (stereo unspecified)	i	2.8%	1.11
O=C(Nc1cnc2sc3c(n2c1=O)CCCC3)c1ccc(F)cc1	i	-6.7%	0.7
O=C(CSc1nnc(CNc2ccccc2)o1)N1CCN(C(=O)c2ccco2)CC1	i	1.9%	-0.71
Cc1cc(C)n(-c2nnc(C)n2/N=C/c2cc(Br)ccc2OCc2ccccc2)n1	i	-2.6%	0.49
CC(=O)C1=NN(c2ccccc2)C(c2cccs2)N1c1ccc(N(C)C)cc1 (stereo unspecified)	i	1.7%	nt
CCOC(=O)c1[nH]c2ccc(F)cc2c1N=C(C)N(CC)CC	i	9.0%	0.68
CCOc1ccccc1N1CCN(CC(=O)Nc2nnc(CC)s2)CC1	i	0.9%	0.25
CCc1c(C)sc(NC(=O)C2CCCO2)c1C#N (stereo unspecified)	i	-4.4%	nt
COc1ccc(CCNC(=O)c2c(O)c3cccc4c3n(c2=O)CC4)cc1	i	-4.1%	-4.66*
O=C(COc1ccccc1)NCC(=O)NC1=NCCS1	i	-5.2%	0.88
Cc1ccc(N(C)C(=O)N2CCN(S(=O)(=O)c3ccc(C)c(C)c3)CC2)cc1	i	-3.3%	nt
Cc1cc(C)nc(SCc2nc3ncccn3c2Br)n1	i	-1.4%	nt
OC(CN1C2=NCCCN2c2ccccc21)c1ccc2c(c1)OCO2 (stereo unspecified)	i	3.1%	-0.09
CCOC(=O)c1[nH]c(C)c(C(=O)OCC(=O)NC(=O)NC(C)(C)C)c1C	i	-2.1%	1.38
CC(C)(C)c1ccc(S(=O)(=O)NCC(=O)N2CCN(C(=O)c3ccco3)CC2)cc1	i	-2.0%	-0.46
O=C(CN1CCN(c2ccc(Cl)cc2)CC1)Nc1ccc(F)c(F)c1	i	-1.8%	0.56
Cc1ccc(C(=O)NC2CCCc3ccccc32)o1 (stereo unspecified)	i	4.8%	0.97
CCn1c(SCC(=O)Nc2cc(C)on2)nnc1-c1cccs1	i	5.7%	-0.92
CCOc1ccc(OCC)c(NC(=O)CCn2cccc2)c1	i	-0.1%	-1.11
COCCN1C(=O)C(=O)/C(=C(/O)c2cccc(OC)c2)C1c1ccncc1 (stereo unspecified)	i	-1.6%	0.81
CC(=O)C1=C(O)C(=O)N(Cc2cccnc2)C1c1ccc(Cl)cc1Cl (stereo unspecified)	i	2.1%	0.7
Cc1ccc(Nc2nc(N3CCOCC3)c3ccccc3n2)cc1	i	-1.1%	-1.24
CSC1=NCCN1C(=O)c1cccs1	i	3.2%	-1.25
CCC(C)c1ccc(OCCN2CCCC2)cc1 (stereo unspecified)	i	2.2%	nt

Not all compounds are listed; rates above refer to the full screens.
